Source: PubChem
Mtb hypoxia inh: PubChem AID 1159583; 0.1% of 300,000 active; fluorescence inhibition, % (concentration not given with the values); M. tuberculosis hypoxia-regulated fluorescent reporter, fluorescence;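 active = 35 to 45% if threefold the growth effect, above 45% if 1.5-fold the growth effect; inactive = the rest, general growth blockers included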;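 also: wells of about 50 µL received 100 nL stock; 0% = vehicle wells and 100% = reference inhibitor wells; whole bacteria with a GFP reporter of the hypoxia response; strong numbers were not always called active; many hits fall short of the cut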
Sa ugtP lethal: growth inhibition of ugtP-null S. aureus, primary screen, RN4220 ugtP deletion, OD600. 16 h; some inactives read as strong as hits. AID 1259309, 2017. 0.54% of 330,000 active. growth inhibition, % (concentration not given with the values);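 active = z-score under -3 and OD600 up to 0.15 on both plates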;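 also: plate controls were untreated wells for no effect and antibiotic for full effect; wells of about 80 µL received 100 nL stock; the first replicate is given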
Autofluor counter: counter-screen for toxin protease inhibitors: compound fluorescence; 3.1% of 360,000 active; compound autofluorescence counterscreen, microsphere flow cytometry; active compounds read high; AID 624483; fluorescence intensity (test concentration not listed);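 active = at least 3 SD above the mean of all compounds, about 16000 in these data; inconclusive = too few beads counted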;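 also: 100 nL of 1 mM stock went into each well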
PrP 5UTR inh: inhibition of PrP 5' UTR reporter expression. cell-based PrP 5' UTR mRNA reporter, plate reader. inhibition, % (no concentration beside the values). 0.35% of 340,000 active. AID 488862, 2010;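 active = every replicate at 50% or more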;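 also: 0 = median of the neutral control wells; tested in H4 reporter cells; numbers are from one replicate; inactives centre near -14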
Sa RN4220 lethal: growth inhibition of S. aureus RN4220, primary screen, OD600. inhibition, % (concentration not given with the values). 16 h. 0.33% of 330,000 active. AID 1259311, 2017;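 active = z-score of -3 or lower and OD600 up to 0.18 on both plates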;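 also: plate controls were untreated cells for no effect and reference antibiotic for full effect; stock transfer was 100 nL into about 80 µL; one replicate is shown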
BJeLR viability: MLPCN primary cell-based screen for lethality selective to Ras in HRASV12 cells | BJeLR (HRASV12) viability, CellTiter-Glo ATP luminescence, 48 h; reference of the scale not given here | inhibition, % (test concentration not listed) | 0.17% of 300,000 active;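 active = replicate mean above 50%; inconclusive = above 50% but judged a plate artefact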;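 also: 50 nL library stock added to about 25 µL; numbers are from one replicate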
Mtb hypoxia inh growth: recorded beside Mtb hypoxia inh, whose call it bears; growth inhibition, %; measured here: M. tuberculosis growth (absorbance);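 0% = vehicle and 100% = reference antibiotic; read after six days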
Active calls of the source: *; u = inconclusive; x = not tested or not shown.

SMILES	Mtb hypoxia inh	Mtb hypoxia inh growth	Sa ugtP lethal	Autofluor counter	PrP 5UTR inh	Sa RN4220 lethal	BJeLR viability
CN1CCN(C(c2cccs2)c2nnnn2Cc2ccc(F)cc2)CC1 (configuration not stated)	5.3	13.6	1.2	4489	-26.9	4.9	-6.9
Oc1[nH]c2ccccc2c1N=Nc1ccc(C(F)(F)F)cn1	x	x	-16.3	4638	-55.0	-3.6	-5.6
Cc1ccc(C(NC(=O)CN2C(=O)NC3(CCCC3)C2=O)c2ccccc2)cc1 (configuration not stated)	10.6	-3.5	-1.6	8767	-2.5	0.0	x
CCOC(=O)C(C)C(C)=NNC(N)=S (configuration not stated)	12.9	8.4	0.5	x	x	-0.2	x
C=CCNC(=O)NC(=O)COC(=O)/C(C#N)=C/c1cc(C)n(CC(C)C)c1C	3.2	-6.7	11.8	11145	-47.0	4.8	-3.2
COCCCn1c(=S)[nH]c2c(sc3ccccc32)c1=O	4.9	5.7	2.7	4151	1.1	25.3	-11.3
COC(=O)c1cc(S(=O)(=O)n2nc(C)cc2C)c(Cl)cc1Cl	0.5	10.8	-4.3	x	x	-13.9	-6.5
Cc1ccc(Nc2nc(-c3ccc(O)cc3O)cs2)nc1	6.6	1.6	-0.5	3947	-86.3	-6.6	-7.5
OC1/C(=C/c2ccccc2F)N2CCC1CC2 (configuration not stated)	4.4	11.3	7.5	3327	-10.6	4.6	-5.5
CN(Cc1cccs1)C(=O)c1ccc(Cl)c(S(=O)(=O)N2CCCCCC2)c1	10.0	13.5	7.4	3851	-5.9	3.6	x
O=P(O)(CP(=O)(c1ccccc1)c1ccccc1)c1ccccc1	x	x	-1.0	4081	2.5	1.3	-2.8
Cc1c(C(=O)c2ccc(Cl)cc2[N+](=O)[O-])c2ccccn2c1CCC#N	3.0	6.2	1.3	2060	-3.0	5.6	4.5
CCCCn1c(N)c(N(CCOC)C(=O)c2cc3c(s2)CCC3)c(=O)[nH]c1=O	-0.6	-3.4	-2.3	5445	-22.6	2.6	-3.4
N#C/C(=C/c1cn(CC(=O)O)c2ccccc12)C(=O)NCc1ccccc1	x	x	x	4718	-6.2	x	5.4
CC(C)CC(NC(=O)c1nc[nH]c1C(=O)NCC(=O)OCc1ccccc1)C(=O)OC(C)(C)C (configuration not stated)	-2.4	3.6	2.6	x	x	7.6	x
O=c1[nH]c(=O)c2cn[nH]c2[nH]1	7.5	1.2	4.9	6158	-15.9	9.6	x
O=C(O)c1ccc(NC(=O)c2cccc(C(=O)Nc3ccc(C(=O)O)cc3)n2)cc1	-5.2	5.6	-7.2	3600	-21.3	0.6	5.1
CCN(CC)c1ccc(NC(=O)C2CCCN(S(=O)(=O)c3cccnc3)C2)c(C)c1 (configuration not stated)	x	x	-8.3	4458	-76.7	-4.8	-2.7
COc1ccc(-n2nc(C(=O)O)cc2-c2ccccc2)cc1	4.9	3.0	3.5	3675	-23.6	1.5	-1.0
COc1ccccc1OCCNC(=O)c1cc(SC)ccc1Cl	6.6	6.7	6.0	2401	-62.4	4.5	4.5

3 structures already listed, ordered by count of non-hydrogen atoms, largest number first:
SMILES	Mtb hypoxia inh	Mtb hypoxia inh growth	Sa ugtP lethal	Autofluor counter	PrP 5UTR inh	Sa RN4220 lethal	BJeLR viability
N#C/C(=C/c1cn(CC(=O)O)c2ccccc12)C(=O)NCc1ccccc1	x	x	x	4718	-6.2	x	5.4
Cc1c(C(=O)c2ccc(Cl)cc2[N+](=O)[O-])c2ccccn2c1CCC#N	3.0	6.2	1.3	2060	-3.0	5.6	4.5
COc1ccc(-n2nc(C(=O)O)cc2-c2ccccc2)cc1	4.9	3.0	3.5	3675	-23.6	1.5	-1.0

The list continues.
SMILES	Mtb hypoxia inh	Mtb hypoxia inh growth	Sa ugtP lethal	Autofluor counter	PrP 5UTR inh	Sa RN4220 lethal	BJeLR viability
Clc1ccc2c(c1)CNc1c(ncnc1N1CCOCC1)O2	7.6	6.2	1.7	2191	-10.1	7.1	11.6
Cc1ccccc1Sc1ccc([N+](=O)[O-])cn1	1.0	7.3	-0.9	5512	-7.1	11.2	-1.4
CC(C)c1ccc(/C=C/C(=O)Nc2nc3ccc([N+](=O)[O-])cc3s2)cc1	6.1	4.6	0.3	u	-2.5	0.9	-1.9
CCOc1ccc(OCc2ccc(C(=O)OCc3ccccn3)o2)cc1	12.5	7.2	6.9	5189	-88.6	4.9	-6.5
O=C(CN1CCN(c2ccc(O)cc2)CC1)Nc1ccc(S(=O)(=O)N2CCCC2)cc1	-3.1	1.1	-4.2	2995	11.7	0.9	x
O=C(NN1CCOCC1)c1cc(-c2cccs2)nc2ccccc12	1.3	10.2	0.7	7158	-13.2	6.1	-2.1
Cc1ccc(CNC(=O)c2cccnc2Sc2cccc(Cl)c2)cc1	3.4	8.3	7.9	4099	14.5	6.8	-14.3
COC(=O)c1nc(NC(=O)c2ccccc2)n[nH]1	1.4	6.7	-4.9	19928*	2.4	0.2	-5.0
CC(=O)Nc1ccc(NC(=O)C/C(C)=N/NC(N)=S)cc1	x	x	x	4758	-23.1	x	8.2
CCOc1ccccc1-c1cc(-c2ccc(OC)cc2)nc2c1c(=O)n(C)c(=O)n2C	10.9	-0.8	-1.3	2386	4.7	6.1	-3.6
CCCc1cc(=O)[nH]c(NCc2ccc(Cl)cc2)n1	-0.1	-5.5	-18.6	4203	-5.2	-1.4	-4.8
O=C1C2CC=CCC2C(=O)N1Cc1ccccc1Cl (configuration not stated)	3.0	-3.9	3.9	2565	-6.1	6.4	-9.4
CC(=O)Nc1nc2n(n1)C(c1ccc(Cl)cc1)C=C(C)N2 (configuration not stated)	x	x	x	2645	-8.2	x	0.6
Cc1ccc(CCNC(=O)c2cc(C)nn2-c2ccccc2)cc1	14.6	5.2	8.6	4532	-9.7	9.7	-2.6
CC(=O)Nc1c(C)cc(S(C)(=O)=O)cc1C	3.0	5.6	-0.6	9340	-11.0	5.0	-3.5
COc1ccccc1C(=O)Nc1nnc(S(=O)(=O)N(C)Cc2ccccc2)s1	2.0	10.4	4.7	5435	-26.3	15.0	3.7
CCOC(=O)/C(C#N)=C/c1ccc(OCC(=O)Nc2cc(C)ccc2C)c(OC)c1	2.0	1.8	1.6	4277	-16.5	1.1	-16.4
COC(=O)Cn1c(=NC(=O)c2cc(-c3cccs3)nc3ccccc23)sc2cc(S(N)(=O)=O)ccc21	x	x	x	2153	-7.9	x	-1.4
COc1cc(SC)ccc1C(=O)N1CCCc2ccccc21	20.1	14.2	4.6	3695	-17.8	5.2	3.0
CC(c1ccccc1)C1CC(=O)N(c2ccccc2)C1=O (configuration not stated)	7.7	-0.1	1.9	3154	-29.4	5.2	-16.3

SMILES	Mtb hypoxia inh	Mtb hypoxia inh growth	Sa ugtP lethal	Autofluor counter	PrP 5UTR inh	Sa RN4220 lethal	BJeLR viability
CN(C)CCOc1ccc2ccccc2c1	-12.4	-10.5	3.4	2384	0.7	-1.2	-5.4
COc1ccc(C(=O)OCC(=O)N2CC(=O)Nc3ccccc32)cc1Br	-10.4	1.0	-0.9	5218	-17.5	-2.7	x
COc1nc2c(c(-c3cc(Br)cs3)c1C#N)Cc1ccccc1-2	4.9	3.5	-1.0	x	-25.4	2.0	2.0
N#Cc1nc(-c2ccc(OCc3ccccc3)cc2)oc1NCc1ccco1	11.6	7.2	-5.1	2359	-12.0	1.6	-6.0
CCOC(=O)C1=C(C)NC2=C(C(=O)CC(C)(C)C2)C1c1ccc(O)c(OCC)c1 (configuration not stated)	-3.6	2.9	4.2	4278	-11.6	5.4	-9.0
COc1ccc2c(c1)C(C)=CC(C)(C)N2C(=O)CNCc1ccc2c(c1)OCO2	-1.6	6.5	-7.1	21446*	8.8	2.9	12.5
CCn1nc(NS(=O)(=O)c2ccc([N+](=O)[O-])cc2)c2cc3cccc(C)c3nc21	x	x	x	6368	1.5	x	-1.3
O=C(Cn1nc(C(=O)O)c2ccccc2c1=O)NC12CC3CC(CC(C3)C1)C2	2.7	2.1	-0.8	3409	-11.1	3.6	0.9
COCc1[nH]nc2c1C(c1ccccc1Cl)C(C#N)=C(N)O2 (configuration not stated)	6.8	9.3	0.4	3775	-20.3	12.8	-2.3
CCC(C)C(C)=NNC(=O)c1ccc(CSc2nc3ccccc3s2)cc1 (configuration not stated)	-0.7	6.1	-4.0	x	x	3.7	x
COc1ccccc1CNC(=O)Nc1cccs1	4.1	8.5	26.4	3241	-14.7	53.1	12.9
Cc1ccc2c(c1)Oc1ccc([N+](=O)[O-])cc1C(=O)N2	4.0	7.8	-3.3	2673	-12.5	1.7	-1.8
CCOc1ccccc1OCC(O)CNC (configuration not stated)	3.9	5.0	1.0	8152	-6.8	-2.0	-5.8
Oc1cccc2nc3ccccc3nc12	x	x	4.2	3914	8.3	-0.1	-4.1
CCCCOC(=O)CSC1=C(C#N)C(c2ccc3c(c2)OCO3)CC(=O)N1 (configuration not stated)	x	x	-0.5	4552	2.5	2.8	-11.8
Cc1cc2ccccc2c(=O)n1CC(=O)NCC(=O)N(C)Cc1ccccc1	-4.3	19.0	1.4	4043	-0.9	2.5	-4.9
CC(C)CN(C(=O)COC(=O)CCSc1ccc(F)cc1)c1c(N)n(Cc2ccccc2)c(=O)[nH]c1=O	8.8	8.8	1.2	6213	-12.1	3.5	-3.2
CC(=O)c1cccc(NC(=O)C(C)OC(=O)C2CCC2)c1 (configuration not stated)	4.5	2.9	6.9	6072	-10.8	0.2	4.8
O=C(Nc1ccccc1Cl)N1C2CCC1CC(O)(c1cccnc1)C2 (configuration not stated)	5.6	5.5	10.5	2581	-8.6	0.7	5.3
O=C(Nc1cccc(Cl)c1)c1ccc(NC2=NC3CS(=O)(=O)CC3S2)cc1 (configuration not stated)	13.1	5.2	-5.2	5203	-18.1	-15.5	1.3

3 compounds drawn at random from those above, as already listed:
SMILES	Mtb hypoxia inh	Mtb hypoxia inh growth	Sa ugtP lethal	Autofluor counter	PrP 5UTR inh	Sa RN4220 lethal	BJeLR viability
CCC(C)C(C)=NNC(=O)c1ccc(CSc2nc3ccccc3s2)cc1 (configuration not stated)	-0.7	6.1	-4.0	x	x	3.7	x
O=C(Nc1cccc(Cl)c1)c1ccc(NC2=NC3CS(=O)(=O)CC3S2)cc1 (configuration not stated)	13.1	5.2	-5.2	5203	-18.1	-15.5	1.3
CCOC(=O)C1=C(C)NC2=C(C(=O)CC(C)(C)C2)C1c1ccc(O)c(OCC)c1 (configuration not stated)	-3.6	2.9	4.2	4278	-11.6	5.4	-9.0

The list continues:
SMILES	Mtb hypoxia inh	Mtb hypoxia inh growth	Sa ugtP lethal	Autofluor counter	PrP 5UTR inh	Sa RN4220 lethal	BJeLR viability
CCOc1ccc(S(=O)(=O)N(C)c2ccc(OCC(=O)OCc3c(C)noc3C)cc2)cc1	0.2	2.3	-5.2	3766	-11.7	9.0	-2.7
O=C(Nc1c(C(=O)N2CCOCC2)cnn1-c1ccccc1)c1ccc([N+](=O)[O-])cc1	2.6	2.0	1.2	5395	-2.0	-1.0	-4.0
O=C(COC(=O)c1nc(Cl)ccc1Cl)c1ccccc1Cl	0.2	-2.0	0.7	u	-24.5	0.1	-8.0
COC(=O)c1ccc(C(=O)Nc2ccc3nc(-c4cccnc4)[nH]c3c2)cc1	-3.5	7.8	-5.3	4289	-31.1	-5.6	-13.0
Cc1cccc(-c2nc(CSCC(=O)NCc3cccs3)c(C)o2)c1	18.1	-32.9	-0.9	3608	-19.7	-0.5	-2.8
N#Cc1ccc(/C=C/C(=O)c2ccccc2)cc1	36.2*	21.6*	10.9	4783	-27.2	24.4	28.3
O=c1cc(CN2CCN(S(=O)(=O)/C=C/c3ccccc3)CC2)c2ccc(O)cc2o1	x	x	x	2649	3.1	x	1.6
COc1ccc(C(=O)N(c2ccc(OC)cc2)S(=O)(=O)c2cccs2)cc1	3.8	10.5	15.1	2547	-27.0	8.2	-2.4
NS(=O)(=O)c1ccc(CCNC(=O)COC(=O)/C=C/c2ccc(OC(F)F)cc2)cc1	0.6	-0.5	1.6	u	-13.3	-0.6	x
COc1cccc(CNn2cnnc2)c1O	17.8	3.4	3.2	4479	-17.5	4.0	-1.2
CC(=NNc1ncc(Cl)cc1Cl)c1ccc(N2CCOCC2)cc1	3.3	9.4	6.6	x	x	6.0	x
Cc1ccccc1SCC(=O)OCC(=O)N1CC(=O)Nc2ccccc21	11.7	3.4	5.9	3936	-9.4	3.9	x
c1ccc(-c2noc(-c3cccnc3)n2)nc1	-0.5	6.9	0.8	3776	-63.3	5.3	15.7
NNC(=O)c1nc(Cl)c(Cl)c(N)c1Cl	-3.7	-2.6	-3.0	4713	-11.5	0.6	-6.8
COc1cccc(C=Nn2c(N)nc3ccccc32)c1OC	19.9	4.7	6.6	x	x	6.1	x
